S aureus helic – blocks Staphylococcus aureus DNA helicase; purified S. aureus helicase, fluorescence unwinding assay; about half of the hits fall short of the stated cut; hit rate 0.05% among 120,000; inhibition, %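 (tested at about 80 µM)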;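 active = both duplicates at 50% or more, or one of them with a favoured structure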;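 note: 0% = mean of negative control wells and 100% = mean of positive control wells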
MgrA-DNA mod – modulators of Staphylococcus aureus MgrA DNA binding; fluorescence polarization; inhibition, %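 (about 10 µg/mL by stock and volumes)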; hit rate 0.13% among 84,000; AID 602314;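 active = above 50% in either of two replicates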;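 note: 0% = protein plus DNA without compound and 100% = DNA alone without protein; higher means less MgrA bound to DNA so lower polarization; one replicate is shown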
Numbers without * were called inactive; . = no result given. Not all compounds are listed, so the mix of outcomes need not match the whole.

Results follow in this order: S aureus helic, MgrA-DNA mod
> O=C(COc1nncc2ccccc12)NCCC1=CCCCC1
 : 6, .
> COC(=O)c1nnn(-c2nonc2N)c1CN(C)C
 : 6, 0.1
> COC(=O)/C=C/c1cnc2ccccc2c1
 : ., 3.2
> O=c1c2cc3c(cc2[nH]c(=S)n1CCc1ccccc1Cl)OCO3
 : 7, -0.2
> Cc1ccc(C2=NC(C(F)(F)F)(C(F)(F)F)N=C(c3ccco3)O2)cc1
 : 17, 1.5
> COc1cc(-c2c(C#N)c(N)n3c(nc4ccccc43)c2C#N)cc(Br)c1OC
 : ., 1.7
> COc1ccc(-n2c(SCC(=O)NCCC3=CCCCC3)nc3n[nH]c(C)c3c2=N)cc1
 : 0, .
> CCOc1ccc(-c2cc(OC)c3c(C)oc(C)c3c(=O)c2)cc1
 : 3, 34
> COC(=O)/C(C#N)=C/c1cc(C)n(CC(C)C)c1C
 : -4, .
> COC(=O)CN(Cc1ccccc1)S(=O)(=O)c1ccc(F)cc1
 : 6, 2.2
> Cc1cc(C)nc(SCc2ccccc2F)n1
 : 25, 1.3
> CCN1/C(=C/C=C2/C(=O)N(C)C(=S)N2C)Oc2ccccc21
 : -92, .
> CCc1ccc(C(=O)Nc2ccc(Br)cc2)o1
 : 9, .
> CCN1CCCC1CNC(=O)C1c2ccccc2C(=O)N(CCOC)C1c1c[nH]c2ccccc12 (centres undefined)
 : 31, .
> O=C(CN1CCN(Cc2ccccc2Cl)S1(=O)=O)Nc1ccccc1
 : -24, .
> CC[n+]1c(/C=C2/C=C(C)CC(C)C2)sc2ccccc21 (centres undefined)
 : 16, -2.1
> Cc1cc2c(cc3c(=O)n(CC(=O)NCCCN4CC(C)CC(C)C4)ncn32)s1 (centres undefined)
 : 1, 1.3
> COC(=O)C(Cc1c[nH]c2ccccc12)NC(C)=O (centres undefined)
 : -5, -0.7
> CC(C)(C)CC(=O)NC(=S)NC1CCCCC1
 : 3, 2.2
> Cc1nnc(NC(=O)c2ccc3c(c2)C(=O)N(Cc2cccnc2)C3=O)s1
 : 5, -1.2

An excerpt from above in order of formula weight, rising.
Results follow in this order: S aureus helic, MgrA-DNA mod
> CC[n+]1c(/C=C2/C=C(C)CC(C)C2)sc2ccccc21 (centres undefined)
 : 16, -2.1
> CCc1ccc(C(=O)Nc2ccc(Br)cc2)o1
 : 9, .
> Cc1cc2c(cc3c(=O)n(CC(=O)NCCCN4CC(C)CC(C)C4)ncn32)s1 (centres undefined)
 : 1, 1.3

Next section:
Results follow in this order: S aureus helic, MgrA-DNA mod
> O=C(CC1C(=O)NCCN1C(=O)c1ccccc1)Nc1cc(Cl)ccc1Cl (centres undefined)
 : ., -1.2
> Cc1ccc(/C=C/C(=O)Nc2ccccc2)o1
 : -20, .
> O=C(COc1ccccc1)NCCSC1CCCCC1
 : 15, 1.0
> Nc1nonc1-n1nnc(C(=O)N2CCCC2)c1-c1ccccc1
 : 1, -1.4
> Cc1[nH]c(=S)[nH]c(=O)c1CC(=O)O
 : 5, .
> CCc1ccc(OC)c(S(=O)(=O)n2ccnc2)c1
 : 10, 0.9
> O=c1oc2cc(OCc3ccc(C(F)(F)F)cc3)ccc2cc1-c1ccccn1
 : 1, 3.7
> C=Cc1ccc2c(ccn2C(C)=O)c1
 : -12, .
> CCC(C)(C)NC(=O)c1cccc(F)c1
 : 23, 6.2
> O=S(=O)(c1cccs1)N(Cc1ccccc1)S(=O)(=O)c1ccccc1F
 : -6, .
> CC(C)(C)C(=O)N(Cc1ccccc1)c1ccccn1
 : 14, -0.3
> O=C(Cn1cnc2sc3c(c2c1=O)CCCC3)NCCC(=O)N1CCN(c2ccc(F)cc2)CC1
 : 11, 1.5
> COc1ccc(/C=C2\SC(=N)N(c3ccc(OC)cc3)C2=O)cc1
 : -11, 2.1
> O=S(=O)(NCCC1=CCCCC1)c1ccc(Cl)cc1
 : 2, .
> CN1C(=C(C#N)C#N)N(N)c2ccccc21
 : 5, 1.9
> CO/C(=C\c1cccc(O)c1)C(=O)Nc1ccc2ccccc2n1
 : 2, 3.4
> O=C(Oc1cc(=O)oc2c1c(=O)n1c3c(cccc23)CC1)c1ccc(F)cc1
 : -5, .
> O=C(Cn1nc(-c2ccccc2)ccc1=O)Nc1ccc(F)cc1
 : 8, 0.6
> Cn1nnnc1SCC(=O)N1CCCC1c1ccc2c(c1)OCCCO2 (centres undefined)
 : 13, .
> Cc1ccc(NC(=O)NC(=O)CN2C(=O)C3CC=CCC3C2=O)c(C)c1 (centres undefined)
 : 8, .

Additional structures:
Results follow in this order: S aureus helic, MgrA-DNA mod
> Clc1ccc(OCc2noc(-c3ccsc3)n2)cc1
 : ., -1.2
> COc1ccc(C(=O)N2CCC(c3ccccc3OC)CC2)cc1
 : ., -0.7
> CC1Cc2ccccc2N1C(=O)CSc1nnc2c(n1)[nH]c1ccccc12 (centres undefined)
 : -3, -0.2
> CCC(C)C(=O)Nc1ccc(-c2nc3ccccc3o2)cc1 (centres undefined)
 : 1, 1.5
> O=C(NCc1ccccc1)c1ccc(-c2nc3ccccc3s2)s1
 : 8, .
> Cc1cc2c(C)cc(=O)oc2c2c1NCCC2
 : 7, 5.1
> CCC(=O)Nc1c2c(nn1-c1ccc(C)cc1)CS(=O)C2 (centres undefined)
 : 8, -1.4
> N#CCCn1nnc2ccccc21
 : 2, 0.4
> COc1ccc(C(O)c2nnc(-c3ccccc3)o2)cc1OC (centres undefined)
 : -22, .
> Cn1c(Cl)cnc1C1CC(=O)c2cc(Cl)ccc2O1 (centres undefined)
 : -1, .
> COC(=O)c1ccc(OCC(O)CNC(C)(C)C)cc1 (centres undefined)
 : -15, .
> O=C1OC(/C=C/c2ccccc2)=NC/1=C/c1ccco1
 : 6, 4.2
> CCN(CC)CC(=O)O
 : 4, -5.0
> N#Cc1ccc(Cn2cccn2)cc1
 : 2, .
> N#CCS(=O)(=O)Cc1ccco1
 : ., 1.2
> CC1(O)CCOCC1NC(Cc1cc2ccccc2[nH]1)C(=O)O (centres undefined)
 : 8, 0.8
> Cc1cc(C)n2cc(CSC3CCCC3)nc2n1
 : -10, -1.5
> CC1(C)C(=O)C2(C(=O)NCCc3ccccc3)CCC1C2 (centres undefined)
 : 1, 0.1
> Cc1cccc(CS(=O)(=O)c2ccc(Cl)cc2)c1F
 : ., -0.5
> CC(=O)NC1C(=O)N=C(SCc2ccccc2)NC1=O (centres undefined)
 : -21, 0.9

(next part)
Results follow in this order: S aureus helic, MgrA-DNA mod
> Cc1cc(=O)[nH]c(SCSc2nc(C)cc(=O)[nH]2)n1
 : -5, 3.3
> O=[N+]([O-])c1ccc(OCCO)c([N+](=O)[O-])c1
 : ., -0.9
> CCn1cc(C(=O)O)c(=O)c2cnc(N3CCN(C(=S)NCc4ccccc4)CC3)nc21
 : -19, .
> Cc1occc1C(=O)N/N=C/c1cn(-c2ccccc2)nc1-c1ccccc1
 : -2, .
> CCCCc1nc2sc3c(NCc4ccccc4)ncnc3c2c2c1COC(C)(C)C2
 : 7, 1.6
> CC(=O)O[C@]1(C(=O)CO)CCC2C3CCC4=CC(=O)CC[C@]4(C)C3[C@@H](O)C[C@@]21C (some centres undefined)
 : 13, -7.6
> Cc1ccccc1-c1nc(CSCC(=O)NC(C)c2ccc3c(c2)OCCO3)c(C)o1 (centres undefined)
 : 6, .
> O=C(c1cn(-c2ccccc2)nc1-c1cccs1)N(CCO)c1ccccc1
 : -3, -1.1
> CCN(CC)CC(O)COc1ccc(NC(C)=O)cc1 (centres undefined)
 : -14, .
> Cc1cccc(C(=O)NC(=S)Nc2ccc(N3CCN(C)CC3)cc2)c1
 : 16, 1.7
> O=c1nc2c(-c3ccccc3)n[nH]n2c2ccccc12
 : 4, .
> COc1ccc(C2C(C(=O)N(C)c3ccc(C(C)C)cc3)CC(=O)N2c2ccc(OC)cc2)cc1 (centres undefined)
 : 4, 1.1
> Nc1ccc(C(c2ccc(N)cc2)C2NC(=O)c3ccccc32)cc1 (centres undefined)
 : 5, -1.4
> COc1ccccc1/C=C/C(=O)OCC(=O)N1CCCCC1
 : -2, .
> O=c1cc(O)c2ccccc2n1Cc1ccccc1F
 : 5, -1.4
> CCCn1c(-c2ccncc2)n[nH]c1=S
 : -3, .
> COC(=O)c1nnc2nc(-c3ccc(Cl)cc3)cc(C)n12
 : 12, .
> Cc1nc([N+](=O)[O-])cn1Cc1ccc(F)cc1
 : ., -2.9
> CCCCNc1c2c(nc3ccccc13)CC(C)(C)CC2O (centres undefined)
 : 5, -1.0
> CCCCCCCCOc1ccc(C(=O)CCC(=O)O)cc1
 : ., 1.1

Whole records from above:
Listed for Cc1ccccc1-c1nc(CSCC(=O)NC(C)c2ccc3c(c2)OCCO3)c(C)o1 (centres undefined) = S aureus helic = 6; MgrA-DNA mod = .
Listed for CCN(CC)CC(O)COc1ccc(NC(C)=O)cc1 (centres undefined) = S aureus helic = -14; MgrA-DNA mod = .

The results go on:
Results follow in this order: S aureus helic, MgrA-DNA mod
> Cc1ccc(Oc2nnc(-c3cccs3)c3ccccc23)cc1
 : 4, 1.9
> Cc1noc(/C=C/N(C)C)c1S(=O)(=O)NC1CCCCC1
 : 2, -1.4
> CC(C)C1C(=O)NN(c2ccccc2)C1=S (centres undefined)
 : -1, -1.8
> COc1ccc(OCC(O)CN2CCS(=O)(=O)CC2)cc1 (centres undefined)
 : ., 2.7
> N#CC1=C(SCC(=O)Nc2cc(Cl)ccc2C#N)NC2=C(C(=O)CCC2)C1c1cccnc1 (centres undefined)
 : -6, .
> COc1cc(OC)cc(-c2nc(NC(=O)c3cccc(N4C(=O)NC5CC4(C)Oc4ccccc45)c3)n[nH]2)c1 (centres undefined)
 : 34, .
> CN1C(=S)NNC(=O)c2cc(Cl)ccc21
 : 12, .
> COc1ccccc1-c1nn(CCC(=O)NCCc2ccc(Cl)cc2)c2nc(C)cc(C)c12
 : 12, 0.8
> CSc1nnc(/N=C/c2ccccc2O)s1
 : ., 1.4
> CCCCSc1sc(C(=O)OCC)c2c1C(=O)CCC2
 : ., -1.2
> c1ccc(-c2nc(-c3cccnc3)n[nH]2)nc1
 : ., -1.2
> c1ccc(-c2nnc(COc3ncnc4sccc34)o2)cc1
 : -2, .
> CC(C)Cc1nnc(NC(=O)CSc2nc(=O)cc(N)n2-c2ccccc2)s1
 : 4, .
> Cc1noc(C)c1CC(C#N)(Cc1c(C)noc1C)c1nc2ccccc2s1
 : -15, .
> CC1(C)CC(=O)c2cc(C#N)c(=O)n(-c3ccccc3)c2C1
 : 6, -1.6
> CCCOc1ccc(C2C(C(=O)/C=C/c3ccco3)=C(O)C(=O)N2CCCN2CCOCC2)cc1 (centres undefined)
 : 8, .
> CC1CC(C)CN(S(=O)(=O)c2ccc(C(=O)Nc3nnc(-c4ccccn4)o3)cc2)C1 (centres undefined)
 : 6, .
> NC(=O)C12CCCC(CCC1)C2
 : -11, .
> CN(C)c1ccc(/C=N/NC2=NCCN2)cc1
 : 39, .
> Cc1onc2c(=O)[nH]nc(-c3ccccc3)c12
 : 15, .

Additional results follow:
Results follow in this order: S aureus helic, MgrA-DNA mod
> NNC(=O)c1nn(-c2ccccc2)c(=O)c2c(N)scc12
 : 1, .
> CCN(CC)c1ccc2c(c1)OC(N)=C(C#N)C2c1cccc(F)c1 (centres undefined)
 : 2, -1.4
> CN(C)C(=O)CSc1nc2ccccc2s1
 : -22, .
> Cc1nc(N)c(C#N)c(-c2ccc(Br)s2)c1C
 : 0, 0.5
> COC(=O)C1(C)Cc2ccc(Br)cc2C(=O)O1 (centres undefined)
 : 12, .
> CCc1ccc(NC(=S)NN)cc1
 : 7, -0.2
> CC(=O)Nc1ccccc1OCC(=O)N(C1CCCCC1)C1CCCCC1
 : 5, .
> CC(=O)N1CC(C(=O)Nc2cccc(-c3nnc4n3CCCCC4)c2)Oc2ccccc21 (centres undefined)
 : 22, .
> CC(=O)Oc1ccc(-c2csnn2)cc1
 : -8, .
> CC(C)C(=O)Nc1sc2c(c1C(N)=O)CCCC2
 : 6, 0.6
> Nc1nccc(-c2ccc(Oc3ccc(Cl)cc3)cc2Cl)n1
 : ., -0.2
> Cc1c(C(=O)N2CCCC2)c(S(=O)(=O)N(C)Cc2ccccc2)c(C)n1C
 : -13, .
> Cc1ccc(S(=O)(=O)N2CCC(C#N)=C(O)c3ccccc32)cc1
 : 14, 2.0
> Cn1nc(C(C)(C)C)cc1C(=O)Nc1ccc(C(C)(C)C)cc1
 : -24, .
> Nc1cc(C(=O)O)cc(C(=O)O)c1
 : 15, .
> C/C(=N/NC(N)=O)C1(O)CCCCC1
 : -25, .
> Cc1nn(CCc2nc(-c3ccco3)cs2)c2nc(-c3cccs3)cc(C(F)(F)F)c12
 : -10, .
> CSc1ccccc1NC(=O)CCn1c(=O)sc2ccccc21
 : 8, .
> CN(C(=O)Cn1cnc2c(cnn2C)c1=O)C1CCCCC1
 : 15, .
> CN(CCC#N)C(=O)c1cc(Cl)ccc1Cl
 : 6, -1.2

More structures:
Results follow in this order: S aureus helic, MgrA-DNA mod
> C1=C(CCNc2ncnc3c2cnn3-c2ccccc2)CCCC1
 : 6, .
> Cc1oc(C)c(C(=O)O)c1CN
 : -5, 2.6
> Cc1cc(NC(=O)NCc2ccccc2)c(C(F)(F)F)o1
 : ., -0.4
> COc1ccc(NC(=S)NC2CC(C)(C)NC(C)(C)C2)cc1
 : 11, 1.0
> CCCCCOC(=O)C1=C(C)NC2=C(C(=O)CCC2)C1c1cc(OC)c(OC)cc1Br (centres undefined)
 : ., 0.3
> COC(=O)c1cc2sc(C)cc2n1CC(=O)NCCc1ccccc1
 : -1, .
> COC(=O)CNS(=O)(=O)c1ccc(Oc2ccc(S(=O)(=O)NCC(=O)OC)cc2)cc1
 : 4, .
> O=C(c1ccccc1)N1CCCC(C(=O)N2CCC(Cc3ccccc3)CC2)C1 (centres undefined)
 : -11, 0.9
> OC(CCN1CCN(C(c2ccccc2)c2ccccc2)CC1)C(F)(F)C(F)(F)F (centres undefined)
 : ., -1.1
> COc1ccc(NC2=CC(=O)N(c3ccc(OC)cc3)C2=O)cc1
 : ., -0.9
